Source: PubChem BioAssay (Emory University Molecular Libraries Screening Center)
Measles inh – inhibitors of measles virus growth in infected cells. infected Vero cells, GFP fluorescence, 64 h; active compounds read low. z-score (concentration not given with the values). 0.1% of 33,000 active. AID 745;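 active = z-score under -3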;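 also: score is relative to mean and SD of the compound wells of a plate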
The depositor's hits bear a star. The list is partial; rates above refer to the full screens.

Measles inh | structure
-0.35 | CCc1ccc(OCCNc2cc(N3CCOCC3)ccc2[N+](=O)[O-])cc1
-0.28 | CCOC(=O)C1CCN(c2cc(NCCCO)c([N+](=O)[O-])c3nonc23)CC1
-1.7 | Cc1sc2ncn(CC(=O)Nc3ccc(C(F)(F)F)cc3)c(=O)c2c1S(=O)(=O)N1CCOCC1
-0.24 | COc1cc2c(cc1OC)C(COc1ccccc1OC)N(C(=O)c1ccc(F)cc1)CC2 (configuration not stated)
0.9 | CC(NC(=O)c1coc2nc3ccccc3nc12)c1ccccc1 (configuration not stated)
-0.17 | CCCCc1ccc(NC(=O)c2ccc(Br)cc2)cc1
-0.46 | Nc1ccc(Oc2ccc(N)c([N+](=O)[O-])c2)cc1[N+](=O)[O-]
0.03 | COC(=O)c1ccc(CSc2nc(-c3ccco3)nc3c2c(=O)n(C)c(=O)n3C)o1
0.95 | C=CCn1c(SCC(=O)Nc2nc(-c3ccccc3)ns2)nc2sc3c(c2c1=O)CCC(C)C3 (configuration not stated)
-0.84 | CCCCN(C)C(=O)c1c[nH]c2ccc(S(=O)(=O)N(C)c3ccccc3CC)cc2c1=O
-0.25 | COCCc1nnc(N)s1
-0.27 | CCCc1ccc(-c2ccc(C#N)cc2)nc1
-1.7 | CC1CC(C)CN(S(=O)(=O)c2ccc(C(=O)Nc3nc(-c4ccccn4)cs3)cc2)C1 (configuration not stated)
-0.59 | COC(=O)c1c(C)oc2ccc(OC(=O)c3cccc([N+](=O)[O-])c3)cc12
0.21 | O=c1oc2ccccc2cc1-c1cn2cc(Cc3cccc(C(F)(F)F)c3)sc2n1
-0.54 | CCOc1ccc(-c2nnc(NC(C)=O)s2)cc1
-1.3 | Cn1c(S(=O)(=O)Cc2ccc(Cl)cc2)nc2ccccc21
-0.98 | CC1CCN(Cc2ccccc2CO)CC1
0.98 | Cc1c(Cl)cccc1NC(=O)c1cc(-c2ccc(Cl)cc2)on1
-1.3 | CCNc1nc(NC(C)C)nc(SCCOc2ccc(C)cc2)n1
-1.3 | CCc1nc2ccc(C(=O)NCc3cccnc3)cc2nc1CC
-0.12 | CCC1CCCCN1S(=O)(=O)c1ccc2[nH]c(=O)cc(C(=O)NC3CCCCC3C)c2c1 (configuration not stated)
-0.2 | CCc1ccccc1Nc1ncnc2c1cnn2-c1ccc(C)cc1C
-1.2 | O=C(Nc1ccc[n+](CC(=O)c2cccc3ccccc23)c1)c1ccccc1
-0.51 | O=C(Nc1ccc(Cl)cn1)C(Cc1ccccc1)NS(=O)(=O)c1ccc(Br)s1 (configuration not stated)
0.03 | CCCn1c(=S)[nH]c2cc(C(=O)N3CC(C)CC(C)C3)ccc2c1=O (configuration not stated)
0.92 | COc1ccc(CNC(=O)CN2CCN(Cc3ccccc3)C2=O)cc1
-0.25 | Cc1ccc(NC(=O)c2cc3n(n2)C(C(F)(F)F)CC(c2ccc4c(c2)OCO4)N3)cc1Cl (configuration not stated)
-1.6 | COc1nc(Nc2ccc(I)cc2C)nc(NC2CCCCC2)n1
0.39 | Cn1c(=O)c2c(nc3n(-c4cccc(C(F)(F)F)c4)c(-c4ccc(F)cc4)cn23)n(C)c1=O
0.09 | Cn1c(=NC(=O)Cc2ccccc2)sc2cc(Cl)ccc21
-0.27 | COc1ccc(C(=O)Nc2c3c(nn2-c2ccc(F)cc2)CS(=O)C3)c(OC)c1 (configuration not stated)
0.22 | CC(=O)N=c1sc2cc(S(C)(=O)=O)ccc2n1C
0.51 | O=C(Nc1ccccc1)c1cc(Oc2ccc(F)cc2)nc2ccccc12
0.4 | O=C1CN(Cc2cccs2)C(=S)N1c1ccc(Oc2ccccc2)cc1
-0.15 | Cc1nc2sc3c(c2c2n[nH]c(=S)n12)CCCC3
-0.94 | COc1ccc(-n2nc(C(=O)NCC(=O)NC3CCCCC3)c3ccccc3c2=O)cc1Cl
-0.03 | CCc1ccc(N(CC)C(=O)CN2C(=O)C3C4C=CC(C4)C3C2=O)cc1 (configuration not stated)
2.5 | COc1ccc(CCNc2ccncn2)cc1OC
1.1 | Cc1ccc2cc3cc(C(=O)N(C)C4CCCCC4)oc3nc2c1

Structural class, those above with fluorine
Measles inh | structure
-1.7 | Cc1sc2ncn(CC(=O)Nc3ccc(C(F)(F)F)cc3)c(=O)c2c1S(=O)(=O)N1CCOCC1
-0.24 | COc1cc2c(cc1OC)C(COc1ccccc1OC)N(C(=O)c1ccc(F)cc1)CC2 (configuration not stated)
0.21 | O=c1oc2ccccc2cc1-c1cn2cc(Cc3cccc(C(F)(F)F)c3)sc2n1
-0.25 | Cc1ccc(NC(=O)c2cc3n(n2)C(C(F)(F)F)CC(c2ccc4c(c2)OCO4)N3)cc1Cl (configuration not stated)
0.39 | Cn1c(=O)c2c(nc3n(-c4cccc(C(F)(F)F)c4)c(-c4ccc(F)cc4)cn23)n(C)c1=O
-0.27 | COc1ccc(C(=O)Nc2c3c(nn2-c2ccc(F)cc2)CS(=O)C3)c(OC)c1 (configuration not stated)
0.51 | O=C(Nc1ccccc1)c1cc(Oc2ccc(F)cc2)nc2ccccc12

(next part)
Measles inh | structure
-0.7 | CCN(CC)c1ncnc2c1[nH]c1ccccc12
-0.7 | CCN1C(=Cc2ccc3cc(NC(C)=O)ccc3[n+]2CC)Sc2cc(C)ccc21
1.6 | O=c1[nH]c2ccc(S(=O)(=O)Nc3ccc(F)cc3)cc2[nH]c1=O
-0.63 | COc1cc(CNCCC2CCOC(C)(C)C2)ccc1O (configuration not stated)
-0.52 | Cc1noc(C)c1S(=O)(=O)N1CCC(C(=O)N2CCN(C(=O)c3ccco3)CC2)CC1
-2 | COc1ccc(C=Nc2nc3ccccc3n2C)cc1OC
0.5 | CC(=O)Nc1ccc(NC(C)=O)c(NC2OCC(O)C(O)C2O)c1 (configuration not stated)
0.83 | Cc1oc2cc(O)ccc2c(=O)c1-c1nc2ccccc2s1
-0.88 | Cc1nn(-c2ccccc2)c2sc(C(=O)OCN3C(=O)c4ccccc4C3=O)cc12
-0.38 | C=CCN1C(=O)OC2(CCCCC2)C1(C)O (configuration not stated)
0.22 | C=CCSc1nc2c(c(=O)[nH]c(=O)n2C)n1Cc1ccccc1Cl
-1.2 | CCOC(=O)c1c(-c2ccccc2)csc1NC(=O)c1noc2c1CCCC2
-1.8 | Cc1cccc(-c2nc(N)n[nH]2)c1
0.03 | Cc1c(C(=O)NC(C)C)oc2ccc(S(=O)(=O)N3CCOCC3)cc12
-0.89 | CCOC(=O)c1ccc(N2C(=O)C3ON(c4ccccc4)C(c4ccc(C)cc4)C3C2=O)cc1 (configuration not stated)
0.95 | CCC(C)N1C(=O)CN(C2CCC(C)CC2)C(=O)C1c1ccc(F)cc1 (configuration not stated)
0.53 | COc1ccc2c(c1OC)C(=O)OC2Nc1nccs1 (configuration not stated)
-0.61 | COc1ccc(C(=O)CSc2n[nH]c(-c3ccncc3)n2)cc1C
-0.75 | N#Cc1c(NC(=O)CN2C(=O)C3CC=C(Cl)CC3C2=O)sc2c1CCC2 (configuration not stated)
-0.18 | Cc1ccc(S(=O)(=O)Nc2ccncc2)c(C)c1N(C)S(=O)(=O)c1ccc(Cl)cc1

Filtered by structure: the entries above with bromine
Measles inh | structure
-0.17 | CCCCc1ccc(NC(=O)c2ccc(Br)cc2)cc1
-0.51 | O=C(Nc1ccc(Cl)cn1)C(Cc1ccccc1)NS(=O)(=O)c1ccc(Br)s1 (configuration not stated)

The main list resumes, repeating the 2 entries before the break.
Measles inh | structure
-0.75 | N#Cc1c(NC(=O)CN2C(=O)C3CC=C(Cl)CC3C2=O)sc2c1CCC2 (configuration not stated)
-0.18 | Cc1ccc(S(=O)(=O)Nc2ccncc2)c(C)c1N(C)S(=O)(=O)c1ccc(Cl)cc1
1.2 | COC(=O)c1c[nH]n2c(NC3CCC(C)CC3)c(-c3ccc(OC(C)C)c(OC)c3)nc12 (configuration not stated)
0.15 | COc1ccc(N2C(=O)C3C(C(=O)Nc4ccc(Cl)cc4)C4C=CC3(CNC(=O)C2c2ccc(Cl)cc2)O4)cc1 (configuration not stated)
-2.8 | CCOc1cc(CNCc2cc(OC)cc(OC)c2)ccc1OC
-0.84 | Cc1cccn2c(=O)c3cc(C(=O)N4CCN(Cc5ccccc5)CC4)sc3nc12
-0.32 | Cc1cc(Br)ccc1NC(=O)Cn1cnc2sc(C)c(S(=O)(=O)N3CCCCC3)c2c1=O
-0.95 | CC(C)(C)c1ccc(-c2csc(NC(=O)c3cccc(F)c3)n2)cc1
-0.72 | COc1ccc(S(=O)(=O)CCC(=O)Nc2ccc(Br)cc2C)cc1
-0.21 | CCCCc1ccc(C(=O)Nc2ccc3nc(N4CCN(C)CC4)cc(C)c3c2)cc1
0.52 | Nc1ccc(C(=O)Nc2ccc(Cc3ccc(NC(=O)c4ccc(N)cc4)cc3)cc2)cc1
-2.2 | CC(C)c1ccc(NC(=O)c2cc(S(=O)(=O)N3CCN(c4ccccc4)CC3)ccc2F)cc1
-0.35 | Cc1ccc(C)c(N2C(=O)c3ccc(C(=O)OC4CCCCC4)cc3C2=O)c1
0.51 | O=C1CCCC2=C1C(c1ccc(Cl)cc1)NC(=S)N2 (configuration not stated)
0.79 | CCOC(=O)C1CCC(CN(Cc2ccc(Cl)cc2)S(=O)(=O)c2ccc(Cl)cc2)CC1 (configuration not stated)
0.89 | Cc1c(Cl)cccc1NC(=O)c1noc2c1CC(C(C)(C)C)CC2 (configuration not stated)
-0.83 | CSc1nc(C)cc(Nc2ccc(C(N)=O)cc2)n1
-0.65 | NS(=O)(=O)c1ccc(CCNC(=O)CCCn2c(=O)[nH]c3ccsc3c2=O)cc1
0.39 | Fc1ccccc1-c1nc(N2CCN(c3ccccn3)CC2)c2ccccc2n1
-1.6 | CC1CCN(S(=O)(=O)c2ccc3nc(-c4ccncc4)cc(C(=O)N4CCN(C)CC4)c3c2)CC1
-0.4 | N=c1ncn(Cc2ccccc2)c2nc(SCCO)[nH]c12
-0.18 | CCC(C)(C)C1CCC2(CC1)SCC(=O)N2c1ccc(Cl)cc1 (configuration not stated)
1.1 | O=[N+]([O-])c1ccc(N2CCN(Cc3nc(-c4ccccc4)no3)CC2)cc1
-0.39 | O=c1cc(-c2ccncc2)[nH][nH]1
-0.88 | O=C1CC(c2ccccc2Cl)CC2=C1C(c1ccc3c(c1)OCO3)Nc1ccccc1N2 (configuration not stated)
-1.7 | COc1cccc(C(=O)Nc2ccc(-n3nncc3-c3ccc(Br)cc3)cc2)c1
-0.09 | Cc1cc(C)nc(NS(=O)(=O)c2ccc(NC(=O)c3ccccc3C(=O)O)cc2)n1
0.1 | CCOC(=O)C1CCN(C(=O)c2cn(C)c(=O)c3cc(OC)c(OC)cc23)CC1
-0.49 | COc1ccc(C2C3=C(CC(C)(C)CC3=O)Nc3nc(SC)nn32)cc1 (configuration not stated)
0.4 | Cc1ccc(C(C)C)c(OCC(O)CNC(C)(C)C)c1 (configuration not stated)
-0.45 | CCOc1ccc(NC(=O)c2c(NCc3ccc(N(C)C)cc3)sc3c2CCC3)cc1
-0.16 | Cc1ccc2c(c1)C(=O)c1cc(N)ccc1C2=O
-0.3 | CCOC(=O)Cc1ccc(N(Cc2cccs2)S(=O)(=O)c2ccc([N+](=O)[O-])cc2)cc1
0.75 | CSc1nc2sc3c(c2c(=O)n1C)CCC3
1.4 | CSc1nc2c(c(=O)[nH]1)C(c1ccc(N(C)C)cc1)C1=C(CC(C)(C)CC1=O)N2 (configuration not stated)
1.7 | O=C(NCCN1CCCCCC1)c1cc(=O)[nH]c2ccc(S(=O)(=O)N3CCCC3)cc12
0.12 | O=C(NCCSc1c(-c2ccccc2)[nH]c2ccccc12)c1ccc2c(c1)OCO2
0.48 | O=C(c1ccc2nc(NC(=O)C34CC5CC(CC(C5)C3)C4)sc2c1)N1CCCCC1
-0.53 | COc1ccc(CNS(=O)(=O)c2ccc3nc(-c4ccccc4)[nH]c3c2)cc1
0.22 | C=CCOC(=O)C1=C(C)N=C2SCCC(=O)N2C1c1ccc(CC)cc1 (configuration not stated)
-1.3 | CC(C)c1ccc(S(=O)(=O)N2CCN(C(=O)c3ccc(F)cc3)CC2)cc1
-0.41 | O=C(COC(=O)c1ccc(Br)c([N+](=O)[O-])c1)c1cccc([N+](=O)[O-])c1
-0.44 | COc1cc2c(cc1OC)C(C(=O)N1CCN(c3ccc(F)cc3)CC1)C(c1ccccc1F)N(C)C2=O (configuration not stated)
-0.3 | COC(=O)c1ccc(Cn2nc(C)c([N+](=O)[O-])c2C)o1
-0.48 | CC(C)(C)C1CCc2c(sc(NC(=O)c3cccs3)c2C(=O)N2CCC(C(N)=O)CC2)C1 (configuration not stated)
1.1 | CNC(=O)c1cc(-c2ccccc2)nc2ccccc12
1.4 | CC(C)(C)C(=O)CSc1nc2ccccc2nc1Cc1ccc(F)cc1
1.1 | CCOC(=O)C1=C(C)NC2=C(C(=O)CC(c3ccccc3)C2)C1c1cccc(O)c1 (configuration not stated)
0.89 | O=C(Nc1ccccn1)c1cc2c(=O)n3ccccc3nc2s1
0.32 | Cc1ccc(Cn2c(=O)c(CCC(=O)NC3CCCC3)nc3ccccc32)cc1
0.47 | C=CCn1c(SCC(=O)NCc2cccnc2)nc2sc3c(c2c1=O)CCC3
-0.18 | O=C(NCCN1CCOCC1)c1sc2ccccc2c1Cl
-0.53 | O=C(CSc1cn(Cc2ccccc2Cl)c2ccccc12)Nc1ccc(F)cc1
-0.57 | CCOC(=O)c1c(-c2ccccc2)oc2ccc(Oc3c([N+](=O)[O-])ncn3C)cc12
0.04 | COc1ccc(C2CC(c3ccc(OC)c(OC)c3)=NN2C(=O)c2ccccc2)cc1 (configuration not stated)
0.17 | N#Cc1c(N=Cc2ccccc2)oc(-c2ccccc2)c1-c1ccccc1
-0.15 | COC(=O)c1ccc2c(c1)sc(=NC(=O)c1ccc(S(=O)(=O)N3CCOCC3)cc1)n2C
-0.05 | O=C1c2ccccc2C(=O)N1CCCCN(C(=O)c1cc([N+](=O)[O-])ccc1Cl)c1ccc(Cl)cc1
0.17 | COc1cc2[nH]c(=O)n(Cc3ccccc3)c(=O)c2cc1OC
0.36 | CCn1c(CCCNC(=O)c2ccc(OC)c(OC)c2)nc2ccccc21
1.4 | Cn1c(=O)[nH]c(=O)c2c1nc(SCc1ccccc1Cl)n2CCc1ccccc1
1.5 | COc1ccccc1-n1c(SCC(=O)Nc2cccc(C)c2C)nc2c(c1=O)SCC2
-0.47 | O=[N+]([O-])c1ccc(Nc2ncnc3ccccc23)cc1
